Screening data deposited in PubChem by ICCB-Longwood Screening Facility, Harvard Medical School.
MgrA-DNA mod: S. aureus MgrA activity modulators, primary screen, biochemical, S. aureus Newman, fluorescence polarization. hit rate 0.13% among 84,000. MgrA-DNA binding. inhibition, %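 (about 10 µg/mL by stock and volumes)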;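 active = above 50% in either of two replicates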;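 note: 0% = protein plus DNA without compound and 100% = DNA alone without protein; higher means less MgrA bound to DNA so lower polarization; one replicate is shown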
S aureus helic: inhibitors of S. aureus replicative helicase, primary screen, biochemical, fluorescence unwinding readout; inhibition, %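 (tested at about 80 µM)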; hit rate 0.05% among 120,000; purified S. aureus helicase, fluorescence unwinding assay; about half of the hits fall short of the stated cut;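 active = both duplicates at 50% or more, or one of them with a favoured structure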;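 note: 0% = mean of negative control wells and 100% = mean of positive control wells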
Active calls of the source: *; . = no result given; & = joins results of further samples. An excerpt; rates above refer to the full screens.

Start of the listing, in advance:
structure,MgrA-DNA mod,S aureus helic
CCOC(=O)c1sc2sc(C(=O)OCC)c(-c3ccc(Cl)cc3)c2c1N,1.5,.
CN(C)/C=C1/C(=O)NN=C1CSc1ccccn1,-1.9,.
CC(=O)Oc1ccc(/C=C2\N=C(c3cc([N+](=O)[O-])ccc3Cl)OC2=O)cc1OC(C)=O,2.3,.

The list itself, from the start:
structure,MgrA-DNA mod,S aureus helic
CCOC(=O)c1sc2sc(C(=O)OCC)c(-c3ccc(Cl)cc3)c2c1N,1.5,.
CN(C)/C=C1/C(=O)NN=C1CSc1ccccn1,-1.9,.
CC(=O)Oc1ccc(/C=C2\N=C(c3cc([N+](=O)[O-])ccc3Cl)OC2=O)cc1OC(C)=O,2.3,.
C=CCn1c(-c2ccccc2)c[nH]c1=S,-0.1,11
O=C(CSc1nc2sc3c(c2c(=O)[nH]1)CCCC3)N(CCO)CCO,2.7,.
Cc1c(Nc2nc3nonc3nc2Nc2cccc(Cl)c2)c(=O)n(-c2ccccc2)n1C,0.4,.
CCN1CCN(C(=O)c2cccc(S(=O)(=O)N(C)c3ccccc3)c2)CC1,.,-14
CC(C)(CO)NC(=O)C(Cc1ccccc1)N1C(=O)c2ccccc2C1=O (stereo unspecified),.,24
CC1(C)CC(=O)C(C2(O)C(=O)c3ccccc3C2=O)C(=O)C1,.,-5
COc1ccc(N2C(=O)CSC2=S)cc1,-1.2,.
CCN(CC)S(=O)(=O)c1ccc(N(C)CCc2ccc(OC)c(OC)c2)nc1,.,-4
COc1ccc(Oc2ccc(-c3ccn[nH]3)cc2)cc1,-1.4,.
CCOc1cccc2cc3c(=O)n(-c4ccc(Br)cc4)nc-3oc12,.,13
COc1ccc(-n2ncc3c(N(Cc4ccccc4)Cc4ccccc4)ncnc32)cc1,-0.3,9
COC(CNc1ncnc2sc(-c3ccccc3)cc12)OC,.,14
Cc1ccc(-c2nc3ccccc3s2)cc1NC(=O)c1ccc2ccccc2c1,-0.8,.
CS(=O)(=O)c1noc(-c2cccs2)c1C#N,-1.2,.
CCOC(=O)c1cc(C#N)c(Oc2ccccc2)nc1C(F)(F)F,0.0,.
O=c1c2cc(Cl)ccc2ncn1Cc1cc(=O)n2ccsc2n1,.,-5
CCC1CCCCN1CCCN (stereo unspecified),.,-11
Cc1cc2c(c(Sc3ccc(Cl)cc3)n1)C(=O)NC2=O,-0.9,.
CC1CCC(N2CCN(c3ncccn3)CC2)C1 (stereo unspecified),-1.0,16
O=C(Cn1c(-c2ccco2)nc2ccccc21)Nc1ccccc1Cl,-1.2,-30
CC(C)Cn1c2ccccc2c2nc3ccccc3nc21,.,-1
COc1cccc(C(=O)N2CCN(c3ccccc3)CC2)c1,.,-3
O=C(Cn1c(=O)c2cccn2c2cccnc21)NCCN1CCCCCC1,.,-7
CNc1nc(-c2cn(CCC#N)c3ccccc23)cs1,.,-11
COC(=O)c1ccccc1NC(=S)NC(C)=O,-4.8,26
O=C(c1csc(-c2cccs2)n1)N1CCCN(S(=O)(=O)c2ccc(F)cc2)CC1,.,-6
CN1CCSc2ccc(C(=O)Nc3cccc(F)c3)cc21,.,6
CCCCc1ccc(NC(=S)NCCCN2CCOCC2)cc1,2.8,8
O=C(Sc1ncccn1)c1ccc(F)cc1,.,-4
Cc1ccc(-c2csc(-c3ccc(Cl)cc3)n2)cc1,2.6,.
O=C(NCc1ccc(F)cc1)N1CCSc2ncccc21,.,-8
CCOC(=O)C1=C(C)N(C)C(=O)NC1c1ccccc1OC (stereo unspecified),1.1,12
CNC(=O)c1ccc(OCC(C)C)cc1,0.4,3
CC1=CC(C)(C)N(C(=O)CSc2nc(C)cc(C)n2)c2ccccc21,.,13
O=C(OCC(=O)N1CCC(Cc2ccccc2)CC1)c1cccnc1Cl,0.5,-8
O=C(Oc1ccc(Cl)cc1Cl)c1csnn1,3.1,.
O=[N+]([O-])c1cc(C(F)(F)F)ccc1N1CCC(n2cccc2)CC1,-2.1,.
CCCNC(=O)CSc1nnc(-c2ccccc2)n1CC,.,-24
COc1cccc(C(=O)Nc2cc(C)nn2-c2ccccc2)c1OC,-1.6,-18
CCCCCC(=O)Nc1cc(-c2nc3cc(C)cc(C)c3o2)ccc1C,.,-26
CCc1c(C)c2c(C)[nH]nc2oc1=O,.,-17
COc1ccc(C23CC4CC(CC(C4)C2)C3)cc1,-0.9,-3
Cc1nc(N)sc1-c1csc(Nc2cccc(Cl)c2)n1,2.0,-23
Cc1sc2ncnc(N3CCN(C)CC3)c2c1-c1ccccc1,-7.3,3
CCC(C)NC(=O)c1ccc2c(c1)N(Cc1ccc(C)cc1)CCS2 (stereo unspecified),0.0,6
COc1ccc(/C=N/NC(=O)CC#N)cc1,3.0,.
CC1=NN(c2ccccc2)C(=O)C1C (stereo unspecified),0.7,.
CCOc1ccc(NC(=O)c2ccc(NCC(=O)N3CCCCCC3)cc2)cc1,0.0,-17
O=c1cc(O)c2cccc3c4ccccc4n1c23,.,12
CC(C)(C)C1CCc2nc3ccc(S(=O)(=O)N4CCC(C(=O)O)CC4)cc3c(C(=O)O)c2C1 (stereo unspecified),.,12
Fc1cccc(Nc2nnc(SCCN3CCCCC3)s2)c1,.,10
O=C(CCc1ccccc1)NC1CCCCC1,0.8,2
c1ccc(CCNc2nc(-c3cccnc3)cs2)cc1,-1.2,6
Nc1nc(NCc2cccc(Br)c2)nn1-c1ccccc1,.,-26
Cc1ccc(C(=O)OC2CC(n3ccc(NC(=O)c4ccccc4)nc3=O)OC2CO)cc1 (stereo unspecified),-1.5,20
Cn1c(SCC(=O)c2ccc(CNC(=O)C(C)(C)C)s2)nnc1C1CC1,.,15
CC(C)N(Cc1ccc(N(C)C)cc1)C(=S)Nc1ccc(Cl)c(Cl)c1,-0.6,.

The list goes on:
structure,MgrA-DNA mod,S aureus helic
Cc1c[n+](CC(=O)c2ccccc2)c(C)cn1,2.1,3
Cc1ccc2onc(CC(=O)NCCC3=CCCCC3)c2c1,.,-20
CCOC(=O)N1CCC(NC(=O)c2ccc3c(c2)N(CC)CCS3)CC1,.,22
Cc1cc(C)n(-c2nc3c(c(=O)[nH]c(=O)n3C)n2CC(O)COc2ccccc2C)n1 (stereo unspecified),.,0
Cc1cccc(NC(=O)CSc2cn(Cc3cccc(F)c3)c3ccccc23)c1C,0.6,-2
CC(NS(=O)(=O)c1cccc(Cl)c1)C(=O)N(C)C1CCN(C)CC1 (stereo unspecified),.,-7
CC(=O)Nc1ccc(C(=O)N(CC#N)CC#N)cc1,-2.3,3
O=C1C2C3C=CC(C3)C2C(=O)N1c1ccc(-c2nc3ccc(N4C(=O)C5C6C=CC(C6)C5C4=O)cc3[nH]2)cc1 (stereo unspecified),-1.7,.
Cc1ccc(S(=O)(=O)N2CCCCCC2)cc1,1.4,.
CCN(c1ccccc1)c1nc2ccc(Cl)cc2n2cnnc12,.,13
COc1ccc(-c2nc(NCCc3c[nH]c4cc(OC)ccc34)sc2C)cc1,-1.4,-1
Cc1cc(C)c(C#N)c(SCC(O)CSc2ccc(Cl)cc2)n1 (stereo unspecified),1.6,-5
Cc1nnc(NC(C)(C)CCl)s1,-1.0,3
O=S(=O)(NCC(c1cccnc1)N1CCOCC1)c1ccccc1 (stereo unspecified),.,-20
COC(=O)c1scc(S(=O)(=O)C(C)C)c1N/N=C(\C#N)C(=O)c1ccccc1,-1.7,.
OC(C#CCCN1CCCCC1)(c1ccccc1)c1ccccc1,.,19
COC(=O)c1ccc(N2CCC(C)CC2)c(N)c1,-1.9,6
O=C1C=CC(=O)N1c1ccccc1Oc1ccc(Cl)cc1Cl,1.6,.
Cc1onc(-c2ccccc2)c1C(=O)OCC(=O)N1CCCC1,.,-2
CCCc1c(C)nc2ccccc2c1SCC(=O)O,-1.9,27
Cc1nn(-c2ccccc2)c2c1C(c1cccs1)N(C1CC1)C(c1ccccc1)=N2 (stereo unspecified),.,3
CC(C)N(C(=O)COn1nnc2ccc(S(=O)(=O)N(C)C)cc21)C(C)C,.,12
CCNC(=O)Oc1cccnc1I,5.2,.
Cc1cccc(NC(=O)c2ccccc2-c2nc(-c3ccccc3)no2)c1,-2.7,-1
O=S(=O)(c1cccc(S(=O)(=O)N2CCN(c3ncccn3)CC2)c1)N1CCCCC1,.,-24
CCCc1nc2ccccc2n1C(=O)CCC(=O)O,.,-22
COc1ccc(-c2cc3cc(OC)c(OC)cc3c(Cc3ccccc3)n2)cc1,2.1,3
CS(=O)(=O)c1ccc(NC(=O)COc2ccc(I)cc2)cc1,.,-6
COC(=O)c1cc2c(ccn2C)n1Cc1cccc(OC)c1,1.2,13
O=C(c1ccc2c(c1)OCO2)N(c1ccc(Br)cc1)C1C=CS(=O)(=O)C1 (stereo unspecified),.,2
CCC(=O)Nc1nc2ccccc2n1CCN1CCCC1,.,6
FC(F)(F)c1cc(-c2ccccc2)nc(NCCc2ccccc2)n1,-0.1,9
N#Cc1c(Cl)ncc2c1N(Cc1ccccc1)CC2,3.1,-14
O=C(O)C1C2C=CC(C2)C1C(=O)NCCO (stereo unspecified),-0.6,1
CSc1ccc(S(=O)(=O)NCCC2=CCCCC2)cc1,0.8,7
COC(=O)c1cc(COC(=O)/C=C/c2cnc3ccccc3n2)oc1C,.,-4
CC(=O)Nc1ccc(N/C=C(/C#N)c2nc(-c3ccc(Cl)cc3)cs2)cc1,.,-2
Cc1cccc(-c2ocnc2C(=O)Nc2ccccc2CN(C)C2CCCCC2)c1,0.7,-3
CCc1cc2c(=O)c(-c3ccc4c(c3)OCO4)coc2cc1O,.,16
Cc1cc(Nc2ccc(O)cc2)c2ccccc2n1,-4.9,11
Cc1nccn1CC1CCc2c(c3ccccc3n2C)C1=O (stereo unspecified),2.5&2.9,5
CC(C)(C)NC(=O)Nc1ccccc1C(N)=O,-0.3,1
CCC(Oc1ccccc1)C(=O)Nc1sc2c(c1C(N)=O)CCCC2 (stereo unspecified),-3.4,7
C(=NCc1ccccc1)c1cn(-c2ccccc2)nc1-c1cccnc1,-2.2,-10
CC(C)N=c1cc2n(-c3ccc(Cl)cc3)c3ccccc3nc-2cc1Nc1ccc(Cl)cc1,0.7,.
NC(=O)c1sc2nc(-c3ccccc3)cc(-c3ccco3)c2c1N,.,-50
Cc1csc(-c2ccccc2)c1-c1ccccc1,2.8,.
Cc1cc(C)c(C#N)c(OC(=O)c2cccs2)n1,8.7,.
CC(C)OC(=O)Nc1ccc(Cl)cc1,.,-21
O=C(CCN1C(=O)/C(=C/c2ccc(Cl)cc2Cl)SC1=S)Nc1cccnc1,2.4,.
CC(C)[C@@H]1CC[C@@H](C)C[C@H]1O,-1.3,.
CS(=O)(=O)Cc1cc(Cl)cc2c1OCOC2,-0.9,.
O=C(O)CCNC(=S)Nc1cccc(C(F)(F)F)c1,-1.5,.
O=C(Cn1cnnc1)NCc1ccc(Cl)cc1,-1.4,.
CC(=O)N(c1ccccc1)c1nc(/C=C/C(=O)O)cs1,.,0
Cn1cccc1C(=O)OCc1cc(Cl)cc2c1OCOC2,.,-18
CC1(C)CC(=O)c2cc3c(N)c(C(=O)NCc4ccco4)sc3nc2C1,0.4,-8
Cc1cc(C)nc(NS(=O)(=O)c2ccc(NC(=O)c3ccc(C(C)(C)C)cc3)cc2)n1,-1.0,.
O=C(c1ccccc1)c1ccc2nc(Cl)c3nnnn3c2c1,.,-22
Cc1sc2c(c1C)C(=O)/C(=C\Nc1ccc(Cl)cn1)S(=O)(=O)N2C,-2.8,.

Following part
structure,MgrA-DNA mod,S aureus helic
CC(C)[C@H](NS(=O)(=O)c1ccc2c(c1)OCCO2)C(=O)OCc1nc2ccccc2s1,.,2
Cc1c(C(=O)O)oc2ccc(S(=O)(=O)NCCc3ccccc3)cc12,-0.9,7
Cn1c(/C(C#N)=C2/CCCCCN2)nc2ccccc21,0.9,1
O=C(O)/C(=C\c1ccco1)NC(=O)c1ccco1,-12,0
O=C(C(Cc1ccccc1)NS(=O)(=O)c1cccc2nsnc12)N1CCc2ccccc21 (stereo unspecified),.,-15
Cc1cc2cc(CNC(=S)Nc3ccccc3)ccc2n1C,0.3,-6
C#CCOc1ccc(C2C3=C(CCCC3=O)N(CCC(=O)O)C3=C2C(=O)CCC3)cc1,-2.5,14
CCC(=O)Nc1cccc(-n2c(C)nc3ccccc3c2=O)c1,.,12
COc1ccccc1CNC(=O)Nc1noc2c1COc1ccccc1-2,1.1,-2
CC1SC(c2ccccc2)NC1=O (stereo unspecified),6.8,12
COC(=O)c1cc(-c2ccc(/C=C3\C(=O)NC(=O)C(C#N)=C3C)o2)ccc1Cl,43,6
CCn1cnc2cc(NCc3ccccc3OC)ccc21,-6.8,9
COC(=O)c1sc2nc(C)[nH]c(=S)c2c1C,.,-24
Cc1cc(C(=O)COC(=O)C2CC2)c(C)n1CC(F)(F)F,.,-3
